BJeLR viability – kills HRASV12-expressing BJeLR cells; BJeLR (HRASV12) viability, CellTiter-Glo ATP luminescence, 48 h; reference of the scale not given here; inhibition, % (concentration not given with the values); 300,000 tested, 0.17% active;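 active means replicate mean above 50%; inconclusive means above 50% but judged a plate artefact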;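 further: 50 nL library stock added to about 25 µL; numbers are from one replicate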
PrP 5UTR inh – inhibition of PrP 5' UTR reporter expression. inhibition, % (no concentration beside the values). cell-based PrP 5' UTR mRNA reporter, plate reader. 340,000 tested, 0.35% active;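 active means every replicate at 50% or more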;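 further: 0 = median of the neutral control wells; tested in H4 reporter cells; numbers are from one replicate; inactives centre near -14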
ugtP null kill – kills S. aureus RN4220 lacking UgtP. AID 1259309. growth inhibition, % (concentration not given with the values). S. aureus RN4220 ugtP deletion, OD600 growth, 16 h; some inactives read as strong as hits. 330,000 tested, 0.54% active;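 active means z-score under -3 and OD600 up to 0.15 on both plates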;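 further: plate controls were untreated wells for no effect and antibiotic for full effect; wells of about 80 µL received 100 nL stock; the first replicate is given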
Autofluor counter – flagged as autofluorescent in microsphere protease counterscreen | fluorescence intensity (concentration not given with the values) | 360,000 tested, 3.1% active | compound autofluorescence counterscreen, microsphere flow cytometry; hits give high values;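 active means at least 3 SD above the mean of all compounds, about 16000 in these data; inconclusive means too few beads counted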;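 further: 100 nL of 1 mM stock went into each well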
Sa RN4220 lethal – S. aureus RN4220 growth inhibition; OD600, 16 h; inhibition, % (concentration not given with the values); 330,000 tested, 0.33% active; AID 1259311;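 active means z-score of -3 or lower and OD600 up to 0.18 on both plates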;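 further: plate controls were untreated cells for no effect and reference antibiotic for full effect; stock transfer was 100 nL into about 80 µL; one replicate is shown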
Mtb hypoxia rep – reduces hypoxia-regulated biosensor signal in M. tuberculosis; M. tuberculosis hypoxia-regulated fluorescent reporter, fluorescence; fluorescence inhibition, % (no concentration beside the values); 300,000 tested, 0.1% active;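 active means 35 to 45% if threefold the growth effect, above 45% if 1.5-fold the growth effect; inactive means the rest, general growth blockers included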;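 further: wells of about 50 µL received 100 nL stock; 0% = vehicle wells and 100% = reference inhibitor wells; whole bacteria with a GFP reporter of the hypoxia response; strong numbers were not always called active; many hits fall short of the cut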
Mtb hypoxia rep growth – further read-out of Mtb hypoxia rep, marked with its call; growth inhibition, %; measured here: M. tuberculosis growth (absorbance);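 0% = vehicle and 100% = reference antibiotic; read after six days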
The depositor's hits bear a star; ? = inconclusive; / = not tested or not shown.

SMILES	BJeLR viability	PrP 5UTR inh	ugtP null kill	Autofluor counter	Sa RN4220 lethal	Mtb hypoxia rep	Mtb hypoxia rep growth
O=S(NC1CCCCC1)C12CC3CC(CC(C3)C1)C2 (stereo not drawn)	1	-15	-6	9399	4.6	/	/
Cc1noc(C)c1S(=O)(=O)Nc1ccc2c(c1)CC(=O)N(C(C)CO)CC(C)C(CN(C)CC1CC1)O2 (stereo not drawn)	/	/	1	/	5.1	2	5
CN(CC(=O)Nc1ccc(N2CCOCC2)cc1)CC(=O)Nc1ccc(N2CCOCC2)cc1	10	-23	9	3286	2.8	4	5
O=C(Nc1ccncc1)c1ccc2ncsc2c1	-6	-11	-5	?	1.1	0	1
O=C(CSc1nc2ccccc2n1CC(=O)N1CCCC1)NCc1ccc2c(c1)OCO2	-4	5	3	9355	5.7	14	5
Cc1ccc(-n2c(C)cc(C=NNC(=O)c3ccncc3)c2C)cc1C	/	/	14	/	-1.7	/	/
COc1ccc(NS(=O)(=O)c2ccc3c(c2)CCN3C(=O)CCC(=O)O)cc1OC	0	-1	7	3163	6.9	2	4
O=C1c2cccnc2C(=O)N1Cc1ccc(S(=O)(=O)N2CCN(c3ccc(Cl)cc3)CC2)cc1	7	-11	4	4864	5.6	0	1
Cc1ccc(CN(C)C(=O)c2cc(S(=O)(=O)N3CCOCC3)ccc2F)o1	/	-13	-4	?	-2.7	-8	-8
CC1(C)C2CCC(C2)C1(C)NC(=O)CN1CCCC1 (stereo not drawn)	9	1	8	3927	5.4	9	4
O=C1c2ccccc2C(Nc2cccnc2)N1Cc1ccccc1Cl (stereo not drawn)	8	-14	1	6578	-13	-2	5
Cc1nnc(N(C)C(=O)c2ccc3c(c2)OCO3)s1	-5	1	1	3190	4.4	10	-1
CC(=O)Oc1ccc(Cn2cnc3cc4ccccc4cc32)cc1	1	1	-14	4565	1.2	9	3
COc1cccc(C(c2c(NC(=O)c3ccccc3)sc(C)c2C)N2CCN(C)CC2)c1 (stereo not drawn)	0	-11	-5	2948	-0.3	3	11
c1cc(-c2nn[nH]n2)ccc1CN1CCCCC1	-3	1	0	3379	4.6	5	3

Looked up above.
O=C(Nc1ccncc1)c1ccc2ncsc2c1 | Mtb hypoxia rep = 0
O=C1c2cccnc2C(=O)N1Cc1ccc(S(=O)(=O)N2CCN(c3ccc(Cl)cc3)CC2)cc1 | Mtb hypoxia rep = 0

(cont.)
SMILES	BJeLR viability	PrP 5UTR inh	ugtP null kill	Autofluor counter	Sa RN4220 lethal	Mtb hypoxia rep	Mtb hypoxia rep growth
COc1ccc(CCC(N)=O)cc1OC	0	-1	3	3774	-0.9	/	/
COc1ccc(Br)cc1C=Nn1c(C)nc2ccccc2c1=O	/	/	3	/	1.9	3	-7
CCOC(=O)c1ccc(NC(=S)Nc2ccc3[nH]c(=O)[nH]c3c2)cc1	2	-19	-8	4788	0.4	17	13
COc1cc(COc2ccc3c(C)c(CCC(=O)O)c(=O)oc3c2)cc(OC)c1OC	-2	-24	13	3610	1.7	6	6
Cc1cc(C(=O)CC#N)c(C)n1-c1c(C)n(C)n(-c2ccccc2)c1=O	-12	-13	3	4837	6.8	8	4
O=C(N/N=C/c1ccc(OC(F)F)cc1)C1=COCCO1	4	-45	/	4643	/	/	/
CCOC(=O)c1cc(=O)c2c([N+](=O)[O-])ccc(OC)c2o1	-17	-16	-3	8638	4.3	5	7
O=C(Cc1ccccc1)Nc1ccc(S(=O)(=O)N2CCOCC2)cc1	5	-25	10	3782	1.5	-1	6
COc1cc(/C=C/c2noc(-c3ccccc3O)n2)cc(OC)c1OC	2	-49	0	1915	3.0	1	7
CCCc1cc(=O)[nH]c(SCC(=O)c2cc(C)n(CCOC)c2C)n1	0	-14	13	6678	4.1	7	-3
COc1ccc(CCN(Cc2cccs2)S(=O)(=O)c2ccc(S(=O)(=O)N(C)C3CCCCC3)cc2)cc1OC	5	-31	19	2109	2.6	11	1
O=C(Nc1ccc(Cl)cc1)OCc1cncs1	-3	-26	-2	2441	-6.4	/	/
Cc1noc(C)c1S(=O)(=O)Nc1ccccc1Cl	-2	-9	0	5387	4.6	8	-3
NC(=O)C1=C[C@H](c2ccc3c(c2)OCO3)C[C@H](OCc2ccc(CO)cc2)O1	0	-19	/	3367	/	/	/
Cc1cc(C)c2c(c1)/C(=N/Nc1ccc(S(N)(=O)=O)cc1[N+](=O)[O-])CCC2	-1	-6	/	3550	/	/	/
CC(=O)Nc1ccc(NC(=O)c2cc(=O)c3ccc(C)cc3o2)cc1	0	-10	-1	4105	-2.0	3	6
O=C(NCCCc1ccccc1)c1ccc(CS(=O)Cc2ccccc2Cl)o1 (stereo not drawn)	-2	-32	5	4358	3.9	4	-3
CN1C(=O)C(Cc2ccsc2)C(=O)N(C)C1=O	-6	-20	7	2291	-1.1	/	/
C=CCn1cnc2c(nnn2-c2ccc(C)c(C)c2)c1=O	-10	-39	7	4156	1.8	17	5
Cc1ccc(SCCNC(=O)c2ccccc2C)cc1	-3	-6	7	2144	6.7	/	/
CCOC(=O)CCC(=O)N1CCOCCOCCN(C(=O)CCC(=O)OCC)CCOCCOCC1	3	-7	-4	9257	0.3	2	0
O=c1c(Br)c(NCc2ccccc2)cnn1-c1ccc(F)cc1	-23	-45	12	4672	4.9	15	2
CC1CCCCN1S(=O)(=O)c1cnc(Cl)c(Br)c1 (stereo not drawn)	-1	-24	11	2844	6.8	6	5
CCOC(=O)/C=C1\CN(CCC(C)C)S(=O)(=O)c2ccccc21	0	-8	/	3972	/	/	/
CC(NC(=O)c1ccc([N+](=O)[O-])o1)C1CC2CCC1C2 (stereo not drawn)	/	-24	16	4194	22	24	32
CCOc1ccc2ccccc2c1C(=O)N1CCN(c2ccccc2)CC1	10	-26	5	21404*	7.5	7	7
C/C(C=NNC(=O)c1cc(C2CC2)[nH]n1)=C\c1ccccc1	/	/	8	/	4.8	-2	0
CCCC(C)NC(=O)CSc1nnc(-c2c[nH]c3ccccc23)o1 (stereo not drawn)	5	-10	0	4123	6.5	12	8
COC(=O)N1C(=O)[C@](c2ccc(OC)cc2)(C(C)C)N1C(=O)OC	4	-21	-5	3981	-12	9	8
O=C(NCCN1CCN(c2ccccc2)CC1)C1CCN(S(=O)(=O)c2cccc3nonc23)CC1	6	-1	6	3589	2.4	/	/
COc1ccc(CCNc2ccc(N3C(=O)CC(C)C3=O)cc2[N+](=O)[O-])cc1OC (stereo not drawn)	3	-7	-1	3409	-0.7	-2	2
Cc1ccc(S(=O)(=O)N(Cc2ccccc2)Cc2ccco2)cc1	5	-24	14	3285	-8.5	6	-1
O=C(NC(=S)Nc1cccc(NC(=S)NC(=O)c2ccccc2)c1)c1ccccc1	/	-47	-2	4235	4.5	4	6
Cc1ccc(/C(N)=N/OC(=O)Cc2cccc3ccccc23)cc1	-6	2	19	1946	-0.3	6	6
Cc1ccc(-c2nc(C(=O)NCC3CCCO3)cc3c2[nH]c2ccccc23)cc1 (stereo not drawn)	18	1	-35	4948	-3.6	/	/
COc1ccc(C(=O)/C=C/c2ccc(N3CCCCC3)c([N+](=O)[O-])c2)c(OC)c1	2	8	-11	11002	-5.4	-9	-4
Cc1cc(N2CCCC2=O)c(N)cc1N	0	-13	7	10872	4.3	0	-5
CCOC(=O)c1sc(NC(=O)C(C)Sc2nnc(N)s2)nc1C (stereo not drawn)	-1	-15	1	4591	2.5	21	14
CN(CC(=O)Nc1ccc(F)cc1)C(=O)C1CCN(C(=O)Nc2ccccc2)CC1	/	-3	1	8867	4.7	4	-2
COC(=O)c1cc(=O)n(Cc2ccc(F)cc2)c(=Nc2ccccc2)s1	-13	-9	4	3597	-5.4	-4	14
CCc1cc(C(=O)OC)c(NC(=O)CN2CCN(C(=O)c3ccco3)CC2)s1	-8	-10	13	/	-3.7	2	0
NS(=O)(=O)c1cccc(NC(=O)CSc2nnc(C3CC3)n2-c2ccccc2)c1	/	-17	1	4341	1.8	14	10
Cc1cc(C)c(NC(=O)COC(=O)/C=C/c2cccs2)c(C)c1	8	-11	4	1919	2.1	2	-2
CC1CCC(=NNC(=O)Cc2cccn2C)CC1 (stereo not drawn)	-4	-60	1	3410	1.4	-2	14
COCCCNC(=O)C1CCN(c2nc(C)cc(C)n2)CC1	4	-1	4	10630	2.6	5	6

A second format for 5 compounds above.
canonical_smiles | BJeLR viability | PrP 5UTR inh | ugtP null kill | Autofluor counter | Sa RN4220 lethal | Mtb hypoxia rep | Mtb hypoxia rep growth
Cc1ccc(SCCNC(=O)c2ccccc2C)cc1 | -3 | -6 | 7 | 2144 | 6.7 | / | /
CCOC(=O)CCC(=O)N1CCOCCOCCN(C(=O)CCC(=O)OCC)CCOCCOCC1 | 3 | -7 | -4 | 9257 | 0.3 | 2 | 0
O=c1c(Br)c(NCc2ccccc2)cnn1-c1ccc(F)cc1 | -23 | -45 | 12 | 4672 | 4.9 | 15 | 2
CC1CCCCN1S(=O)(=O)c1cnc(Cl)c(Br)c1 (stereo not drawn) | -1 | -24 | 11 | 2844 | 6.8 | 6 | 5
CCOC(=O)/C=C1\CN(CCC(C)C)S(=O)(=O)c2ccccc21 | 0 | -8 | / | 3972 | / | / | /

(continued)
SMILES	BJeLR viability	PrP 5UTR inh	ugtP null kill	Autofluor counter	Sa RN4220 lethal	Mtb hypoxia rep	Mtb hypoxia rep growth
NC(=O)c1cc([N+](=O)[O-])ccc1NCc1cccnc1	-4	-2	/	4466	/	/	/
N#CC1(NC(=O)COC(=O)c2ccccc2[N+](=O)[O-])CCCCC1	0	-23	4	6309	3.5	11	-2
O=C(CN1CCN(C(=O)c2cccs2)CC1)Nc1ccc(Br)cc1	5	-11	6	2487	-5.4	/	/
Cc1c(OCc2ccccc2)cccc1OCc1ccccc1	2	-1	29	3856	-0.1	13	10
COc1cc(NC(=O)CSc2nc3c(c(=O)n(C)c(=O)n3C)n2C)cc(OC)c1	-9	-8	4	5696	1.7	-8	-1
Cc1cc(NCCCN2CCOCC2)n2c(nc3ccccc32)c1C#N	-8	-9	4	3915	4.3	-1	9
CCCN(CC(=O)Nc1ccc(Cl)cc1Cl)C(=O)/C=C/c1cccc([N+](=O)[O-])c1	-12	-8	-20	2500	-4.5	3	-3
O=C(Nc1ccc(Cl)cc1C(F)(F)F)C(Sc1nnc(-c2cccs2)o1)c1ccccc1 (stereo not drawn)	-1	-18	15	2475	-2.8	17	13
CCNC(=O)C1CC(=O)N(Cc2ccc3c(c2)OCO3)C(=Nc2ccc(OCC)cc2)S1 (stereo not drawn)	-12	1	-3	5035	5.9	/	/
CN(C)CCN1C(=O)C(=O)/C(=C(/O)c2ccc(F)cc2)C1c1ccccc1F (stereo not drawn)	4	-21	-2	22555*	0.3	1	3
CC(=O)c1cccc(NC(=S)NCc2ccco2)c1	5	-22	-3	10798	-4.7	8	8
COC(=O)c1c(NC(=O)COC(=O)[C@@H](NS(=O)(=O)c2ccccc2)C(C)C)sc2c1CCC2	2	-18	-21	2451	18	4	7
COc1ccccc1-c1sc2cc3c(cc2c1-c1ccc(O)cc1)OCO3	/	-11	56	4901	-18	10	10
Cc1cccc2c1-c1sc(C(=O)Nc3nccs3)cc1CO2	5	-113	10	5335	-1.4	-3	-4
CC1=NCCN1S(=O)(=O)c1ccccc1[N+](=O)[O-]	-2	-12	0	2185	2.3	0	11
CC1(C)CC(=O)C(N=Nc2cccc(F)c2C#N)=C(O)C1	-10	-21	11	5823	-8.0	20	4
CCN(CC)C(=O)[C@H]1CC(CC(=O)NCc2cccc(C(F)(F)F)c2)C(=O)N2CCc3c([nH]c4ccccc34)[C@]12C (stereo partly drawn)	/	-6	-11	3928	0.0	1	14
COc1ccc(CCNC(=O)COc2ccc(S(=O)(=O)NC(C)C)cc2)cc1OC	2	-26	6	2012	5.7	6	-2
CC(c1ccco1)N(C(=O)C12CC3CC(CC(C3)C1)C2)c1ccccn1 (stereo not drawn)	8	-18	-1	4795	11	14	14
Cc1cc(C)c(C(=O)CSc2nnc(-c3ccccc3Br)o2)cc1C	0	-18	-7	2224	4.4	/	/
Cc1ccc(NC(=O)CSCC(=O)Nc2nnc(C3CC3)s2)cc1	6	-6	3	/	1.4	-1	-1
COCc1cc(C)nc(OCC(=O)NN=Cc2ccc(OC)c(O)c2)c1C#N	/	/	7	/	0.0	1	5
O=C(CCCN1CCC(n2c(=O)[nH]c3ccccc32)CC1)c1ccc(F)cc1	/	-9	-2	6163	5.0	-6	-1
Cc1ccc(NC(=O)C(=O)N2CCCC2)cc1Cl	-10	-49	3	2111	4.8	-6	-8
